Sa growth inh: S. aureus growth inhibition at 42 and 30 °C, primary screen, LtaS inhibitor project, RN4220, two temperatures; relative growth, % (concentration not given with the values); OD600, 20 h, 42 °C; stronger effect = lower value; hit rate 0.53% among 170,000; AID 720641, 2013;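 active = growth at 42 °C up to 50% and 20 or more points under that at 30 °C, or under 10% at both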;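 also: 300 nL library stock went into each well; scaled to the means of positive and negative controls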
GIV-Gai inh: inhibitors of GIV peptide binding to Galpha-i3, primary screen, biochemical, fluorescence polarization, FITC-GIV GBA peptide, rat Galphai3 | Guanine nucleotide-binding protein G(i) subunit alpha-3 (Rattus norvegicus), P08753 | 90 min; stronger effect = lower value; scaled: aluminum fluoride 0%, vehicle 100% | percent of control (FP), % (no concentration beside the values) | hit rate 0.42% among 210,000 | AID 1224905, 2016;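 active = replicate mean at 85% of control or lower, very high polarization wells dropped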;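 also: wells of about 15 µL received 100 nL stock; the first replicate is given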
Target sequence (P08753 whole entry, looked up): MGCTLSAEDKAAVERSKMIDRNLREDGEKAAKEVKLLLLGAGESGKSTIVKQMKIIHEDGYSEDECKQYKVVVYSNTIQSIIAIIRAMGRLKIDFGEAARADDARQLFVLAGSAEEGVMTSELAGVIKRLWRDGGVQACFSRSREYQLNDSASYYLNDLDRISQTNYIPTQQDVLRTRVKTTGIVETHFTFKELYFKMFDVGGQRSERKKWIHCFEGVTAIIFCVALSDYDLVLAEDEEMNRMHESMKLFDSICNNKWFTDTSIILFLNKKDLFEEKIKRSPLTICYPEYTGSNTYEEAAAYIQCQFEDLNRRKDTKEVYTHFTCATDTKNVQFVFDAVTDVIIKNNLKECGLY
HCMV NEC inh: inhibitors of HCMV UL50-UL53 interaction, biochemical, HTRF. inhibition, % (no concentration beside the values). HCMV UL50-UL53 nuclear egress complex (human cytomegalovirus). hit rate 0.15% among 190,000. normalized percent inhibition;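 active = both replicates at 50% or more, plus weaker picks with an unusually low signal ratio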;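 also: stock transfer was 100 nL into about 20 µL; 0% = negative control wells and 100% = wells with untagged competitor protein; inactives centre near -12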
Sa growth inh second temp: also measured in Sa growth inh; calls as there; relative growth, %; measured here: growth at 30 °C;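 optical density after 20 h as mean of two plates; 100% = untreated growth and lower means inhibition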
Active calls of the source: *; / = no result given; & = joins results of further samples.

item | SMILES | Sa growth inh second temp | GIV-Gai inh | Sa growth inh | HCMV NEC inh
1 | O=C(O)c1cccnc1C(=O)O | / | 105 | / | 1&-7
2 | Cc1cc(NC(=O)CN2C(=O)CC(c3ccco3)Sc3ccccc32)no1 (stereo unspecified) | 92 | 105 | 90 | -43
3 | Cc1nc(-n2cccc2)sc1C(=O)NCC(C)c1ccccc1 (stereo unspecified) | / | 99 | / | 4
4 | C(=N\C(/N=C/c1ccco1)c1ccco1)/c1ccco1 | 36 | 115 | 110 | -15
5 | CC1CCCCN1C(=O)c1cc2c(=O)oc3ccccc3c2s1 (stereo unspecified) | 88 | 105 | 106 | -8
6 | COc1cccc(Nc2nc(-c3ccccc3)cs2)c1 | 94 | / | 88 | 0
7 | CC(C)(C)C1CCc2sc(-c3nnc(CN4CCN(C(=O)c5cccs5)CC4)o3)cc2C1 (stereo unspecified) | 96 | / | 92 | -3
8 | Cc1ccc(-n2nc(C)c3c(C)c(CCC(=O)NCCc4c[nH]c5ccccc45)c(C)nc32)cc1C | / | 100 | / | -23
9 | O=C(CSc1ccc(-c2ccccc2)nn1)N1CCCC1 | 84 | 101 | 118 | -13
10 | CC(C)(C)c1nc(-c2ccc(C(F)(F)F)cn2)no1 | 75 | 100 | 107 | 2
11 | O/N=C/c1ccc(Cl)cc1 | 92 | / | 96 | -17
12 | CCOC(=O)c1csc(CS(=O)(=O)Cc2ccc(F)cc2)n1 | 70 | 98 | 85 | 5

2 entries picked at random from those above, as already listed:
item | SMILES | Sa growth inh second temp | GIV-Gai inh | Sa growth inh | HCMV NEC inh
10 | CC(C)(C)c1nc(-c2ccc(C(F)(F)F)cn2)no1 | 75 | 100 | 107 | 2
12 | CCOC(=O)c1csc(CS(=O)(=O)Cc2ccc(F)cc2)n1 | 70 | 98 | 85 | 5

Some of the entries so far, with one line to a screen.
[5] CC1CCCCN1C(=O)c1cc2c(=O)oc3ccccc3c2s1 (stereo unspecified)
[6] COc1cccc(Nc2nc(-c3ccccc3)cs2)c1
[7] CC(C)(C)C1CCc2sc(-c3nnc(CN4CCN(C(=O)c5cccs5)CC4)o3)cc2C1 (stereo unspecified)
[8] Cc1ccc(-n2nc(C)c3c(C)c(CCC(=O)NCCc4c[nH]c5ccccc45)c(C)nc32)cc1C
[9] O=C(CSc1ccc(-c2ccccc2)nn1)N1CCCC1
[10] CC(C)(C)c1nc(-c2ccc(C(F)(F)F)cn2)no1
[11] O/N=C/c1ccc(Cl)cc1

Screen / compound no.	5	6	7	8	9	10	11
Sa growth inh second temp	88	94	96	/	84	75	92
GIV-Gai inh	105	/	/	100	101	100	/
Sa growth inh	106	88	92	/	118	107	96
HCMV NEC inh	-8	0	-3	-23	-13	2	-17

(more compounds)
item | SMILES | Sa growth inh second temp | GIV-Gai inh | Sa growth inh | HCMV NEC inh
13 | Cc1nn(-c2ccccc2)c(OC(=O)C(C)C)c1Sc1ccccc1 | 56 | 104 | 69 | -17
14 | CCSc1nc(-c2ccc(OC)cc2)nc2c1c(=O)n(C)c(=O)n2C | 87 | 101 | 101 | 8
15 | N#CCSc1nc(=O)n(C2CCCC2)c2c1CCC2 | / | 109 | / | -19
16 | O=S(=O)(Cc1ccccc1)c1ccc(Cl)c(Cl)c1 | 88 | 99 | 110 | /
17 | Cc1ccc(N2C(=O)CSC23C(=O)N(CC(=O)NCc2ccccc2)c2ccccc23)cc1C (stereo unspecified) | 94 | 101 | 102 | /
18 | CCCC12CN3CC(CCC)(CN(C1)C3c1c[nH]c3ccc(OC)cc13)C2=O (stereo unspecified) | 82 | 97 | 98 | -38
19 | C=CCn1c(-c2ccc(OC)cc2)nc2ccccc21 | 69 | 107 | 106 | 11
20 | O=C1c2ccccc2C(=O)N1O | 87 | 98 | 91 | -80
21 | CCN1CCOC(=O)C1CC(=O)Nc1cccc(OC)c1 (stereo unspecified) | 71 | 108 | 90 | 2
22 | Cc1ccc(Nc2nc3ccccc3n3c(N)nnc23)cc1C | 98 | 103 | 97 | 0
23 | Cc1ccc2oc3c(c(=O)c2c1)C(c1ccccc1F)N(c1ccccn1)C3=O (stereo unspecified) | 90 | 106 | 78 | -35
24 | CCN(CC)C(=O)CN(C)c1nc(-c2ccccc2)nc2ccccc12 | 87 | / | 114 | -24
25 | CCCc1cc(N2CCN(C(=O)c3ccco3)CC2)n2c(nc3ccccc32)c1C#N | 79 | 107 | 94 | -28
26 | COc1cccc(CSc2nc3nccnc3c(=O)n2CCc2ccccc2)c1 | 80 | 100 | 92 | /
27 | CSc1nnc2c(n1)OC(C(=O)c1ccccc1)Nc1ccccc1-2 (stereo unspecified) | 27 | 101 | 69 | -53
28 | CSc1cccc(NC(=NCc2ccncc2)NC(=O)c2ccc(CN3CCOCC3)cc2)c1 | / | 98 | / | 3
29 | O=C(Nc1cccnc1)Nc1cccc(C(F)(F)F)c1 | 71 | / | 92 | 5
30 | Cc1noc(C(F)(F)F)c1-c1nc(-c2ccccc2)no1 | 75 | 105 | 94 | -24
31 | CCN1CCN(CC(=O)Nc2sc3c(c2C(=O)OC)CCC(C)C3)CC1 (stereo unspecified) | 60 | 98 | 63 | -41
32 | CCOc1ccccc1C(=O)NC(C(=O)O)C(C)C (stereo unspecified) | 93 | / | 109 | -16
33 | CN1CCN(CCCNc2c(N)c(=O)oc3ccccc23)CC1 | 90 | 100 | 92 | -23
34 | Cc1ccc2nc(NC(=O)C(NC(=O)c3ccccc3)C(C)C)sc2c1 (stereo unspecified) | 100 | / | 129 | 7
35 | Cc1ccc(S(=O)(=O)NCCSc2nnnn2C)cc1 | 85 | / | 88 | -17
36 | CCn1nc(-n2cnnc2)c(NS(=O)(=O)c2ccc(Cl)cc2)c1C | / | 108 | / | 7
37 | COC(=O)CSC1=C(C#N)C(c2ccc3c(c2)OCO3)C2=C(CCCC2=O)N1 (stereo unspecified) | 74 | 107 | 90 | -51
38 | COc1ccc(CCNC(=O)c2cc(C)on2)cc1OC | 94 | 100 | 105 | -2
39 | CC(=O)N1N=C(c2ccc3c(c2)OCO3)OC1c1ccc(F)cc1 (stereo unspecified) | / | 104 | / | -22
40 | N#CCSc1nc2c(sc3ccccc32)c(=O)n1C1CCCCC1 | 86 | 102 | 78 | /
41 | COc1ccc2cc(C#N)c(=O)oc2c1 | 81 | / | 101 | -43
42 | Clc1ccc(CNCc2cccnc2)cc1 | 92 | 105 | 108 | 0
43 | Cc1nc(C(=O)/C=C/N(C)C)cs1 | 90 | 106 | 96 | -32
44 | O=C(OCC1CCCO1)c1nc2ccccc2nc1Nc1ccc(Br)cc1 (stereo unspecified) | / | 105 | / | -11
45 | Nc1cc(C(F)(F)F)cc2c1OCC(=O)N2 | 85 | / | 133 | -25
46 | CS(=O)(=O)N(CC(=O)NCCSc1ccccc1)c1cc(C(F)(F)F)ccc1Cl | 79 | 100 | 84 | -36
47 | CCOCCSc1nc2c(c(=O)[nH]1)C(C)(C1CCCCC1)Cc1ccccc1-2 (stereo unspecified) | / | 103 | / | 2
48 | Cc1ccc(OCC(=O)NCC(=O)n2nc(C)cc2C)cc1 | 91 | 103 | 89 | /
49 | CC(NC(=O)c1ccc2c(c1)N(Cc1ccc(Cl)cc1)C(=O)c1ccccc1S2=O)c1ccccc1 (stereo unspecified) | 97 | 102 | 96 | -19
50 | CC(=O)Nc1cccc(C(=O)N/N=C/c2ccc(C)o2)c1 | 99 | 112 | 103 | -19
51 | CCCCN(CC)C(=O)Cn1cnc2ccc(S(=O)(=O)N3CCC(C)CC3)cc2c1=O | 85 | 103 | 100 | /
52 | O=C(NCCCN1CCC(N2CCCCC2)CC1)c1cc(-c2ccccc2)c(N2CCCCC2)s1 | / | 104 | / | -12
53 | CC1=C(C(=O)Nc2ccccc2)C(c2ccc[nH]2)n2ncnc2N1 (stereo unspecified) | 59 | 107 | 88 | /
54 | c1cnc2c(CN3CCCCC3)cccc2c1 | 84 | / | 103 | -15
55 | CC(=O)N1CCCSc2ccc(S(=O)(=O)N3c4ccccc4CC3C)cc21 (stereo unspecified) | / | 100 | / | 2
56 | CCCN1C(=O)/C(=N\OCC(=O)c2cc(C)n(Cc3cccs3)c2C)c2ccccc21 | 106 | / | 106 | -7
57 | CC(C#N)(Nc1ccccc1)c1ccc(F)cc1 (stereo unspecified) | 76 | 103 | 97 | -40
58 | CCOc1ccc(NC(=O)c2cnccn2)cc1 | 84 | / | 118 | -11
59 | CCCCCC(C)n1[nH]c(=O)c2c(C)cc(=O)[nH]c21 (stereo unspecified) | 82 | 107 | 94 | -34
60 | CSc1ccc(Cl)c(C(=O)N2CCN(CC(=O)N3CCCC3)CC2)c1 | 103 | / | 98 | 1
61 | COc1ccc(NC(=O)CCS(=O)(=O)c2cc(-c3cc(C)no3)ccc2C)c(OC)c1 | / | 103 | / | 0
62 | CC1CCCC(C)N1C(=O)COC(=O)c1ccco1 (stereo unspecified) | 103 | / | 93 | 30
63 | COc1nc2ccccc2nc1OC | 91 | 101&100 | 113 | 0
64 | O=C(CSC1CCCC1)NCc1ccc2c(c1)OCO2 | 90 | / | 103 | -18
65 | O=C(O)CCCc1c[nH]c2ccccc12 | 91 | / | 68 | 3&-10&-15
66 | O=C(CSc1ccccc1)Nc1ccccc1F | 106 | 100 | 107 | -8
67 | O=C(Oc1ccc2c(c1)OCO2)c1ccc(S(=O)(=O)C(F)F)cc1 | 96 | / | 81 | -17
68 | O=C1c2ccccc2C(=O)C1c1ccc(Br)cc1 | 86 | / | 91 | -64
69 | CCN(CC)C(=O)C12CC3CC(CC(C3)C1)C2 | 87 | 115 | 95 | -6
70 | COC(=O)[C@H]1[C@H]2C[C@H]3c4[nH]c5ccccc5c4CCN3C[C@H]2CC[C@@H]1O | / | 102 | / | -11&-28
71 | O=C(Nc1ccc2c(c1)OCCO2)c1ccccc1F | 90 | 104 | 134 | /
72 | Clc1nc(Cl)nc(NNc2nc(Cl)nc(Cl)n2)n1 | 68 | 99 | 96 | -7

New compounds follow
item | SMILES | Sa growth inh second temp | GIV-Gai inh | Sa growth inh | HCMV NEC inh
73 | O=C(CSc1nc2ccccc2o1)NCCOC12CC3CC(CC(C3)C1)C2 | 95 | / | 93 | -26
74 | c1ccc(-c2ncc(CSc3nnc(-c4cccs4)n3CC3CCCO3)s2)cc1 (stereo unspecified) | 93 | / | 85 | -21
75 | Cc1ccnc(NC(=O)Cn2c(=O)oc3cc(S(=O)(=O)N4CCc5ccccc54)ccc32)c1 | 82 | 104 | 93 | 3
76 | O=C1CCCc2cc(S(=O)(=O)N3CCCC3C(=O)N3CCc4ccccc43)ccc2N1 (stereo unspecified) | 84 | 102 | 92 | -15
77 | COc1ccc(-c2noc(-c3ccc(N4CCCC4)c([N+](=O)[O-])c3)n2)cc1 | 92 | 102 | 103 | 12
78 | CCC(=O)n1ccc(C(=O)N2CCOCC2)n1 | 79 | 106 | 121 | /
79 | CCNC(=O)c1ccc(Cn2nc(-n3cccc3)c3c(C)cc(C)nc32)cc1 | 100 | 110 | 110 | -1
80 | Cc1ccc(-c2nc(S(=O)(=O)c3ccc(C)cc3)c(N3CCCC3)o2)cc1 | / | 101 | / | -22
81 | Cc1ccc(N2CC(=O)SC23CCCCC3)cc1 | 87 | / | 94 | -12
82 | Cc1ccc(N2CCN(C(=O)Cc3c(C(=O)O)c(C)cn3C)CC2)c(C)c1 | 85 | 100 | 95 | /
83 | Cc1ccc2snc(C(=O)N3CCN(S(=O)(=O)c4ccc(Br)cc4)CC3)c2c1 | / | 105 | / | -13
84 | Cc1nc2c(c(C)nn2-c2ccccc2)c(C)c1CCC(=O)NCCc1ccccc1 | 81 | 102 | 104 | -17
85 | Brc1cc2c(cc1CSc1ncccn1)OCCO2 | 92 | / | 101 | 1
86 | Cc1ccc(-n2c(=O)c3c4c(sc3n(CC(=O)c3ccc(Cl)cc3)c2=O)CCC4)cc1C | 104 | 99 | 94 | 16
87 | O=S(=O)(NNc1ccccn1)c1cccc(Cl)c1Cl | 90 | / | 112 | 5
88 | Cc1cc(/C=C2\SC(N)=NC2=O)c(C)n1C1CC1 | 92 | / | 82 | -36
89 | Cc1ccc(N2CC3=C(C2=O)C(c2ccccc2)NC(=O)N3C)cc1C (stereo unspecified) | 96 | / | 105 | -7
90 | CN(C)c1ccc(C(=S)c2ccc(N(C)C)cc2)cc1 | 87 | 97 | 103 | -124
91 | COc1ccccc1-n1nnc(C(=O)N2CCCC2)c1N | 97 | 111 | 83 | /
92 | COc1cccc(NC(=O)C23CCC(C)(C(=O)C2)C3(C)C)c1 (stereo unspecified) | 74 | 105 | 111 | 1
93 | COc1cccc(NC(=O)N2CCC(CN3CCCCC3)CC2)c1 | / | 102 | / | 0
94 | O=C(O)c1nccnc1C(=O)NC(c1ccccc1)c1ccccc1 | 91 | 104 | 112 | 4
95 | COc1ccc(-c2nnc(SCC(=O)Nc3cccc(F)c3)s2)cc1 | 79 | 101 | 99 | /
96 | CCOC(=O)c1cnc2ccc(OCC)cc2c1N1CCN(c2ccccc2)CC1 | 75 | 99 | 97 | /
97 | CCc1cc(C(Nc2cccc(C)n2)c2cccnc2)c(NC(=O)c2ccccc2)s1 (stereo unspecified) | / | 108 | / | -26
98 | O=C(Nc1nnc2n1CCS2)c1ccc(F)cc1F | 88 | 96 | 100 | /

Profiles from above.
Cc1nc2c(c(C)nn2-c2ccccc2)c(C)c1CCC(=O)NCCc1ccccc1 as listed: Sa growth inh second temp: 81; GIV-Gai inh: 102; Sa growth inh: 104; HCMV NEC inh: -17
Cc1ccc2nc(NC(=O)C(NC(=O)c3ccccc3)C(C)C)sc2c1 (stereo unspecified) as listed: Sa growth inh second temp: 100; GIV-Gai inh: /; Sa growth inh: 129; HCMV NEC inh: 7
